# AID504770 = growth inhibitors of E. coli YBA685 in a screen for V. cholerae RctB (chromosome II replication) inhibitors. z-score (test concentration not listed). actives 0.27% (n = 130,000). E. coli YBA685 rctB-dependent plasmid, OD600 growth, 3 h; stronger effect = lower value;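 active = z-score under -2 on both plates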;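 also: wells of about 30 µL received 100 nL stock; score is relative to mean and SD of the test wells; the first replicate is given; strong numbers were not always called active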
# Ba CapD inh = blocks the Bacillus anthracis CapD enzyme | purified CapD enzyme, fluorescence intensity read-out; stronger effect = lower value; some hits fall short of the stated cut | z-score (no concentration beside the values) | actives 0.23% (n = 140,000) | AID 492967;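 active = z-score under -4 in either of two replicates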;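 also: stock transfer was 100 nL into about 40 µL; score is relative to mean and spread of the plate; one replicate is shown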
# The depositor's hits bear a star; x = no result given.
SMILES,AID504770,Ba CapD inh
CCC1CCCCN1C(=O)CSc1nc2ccccc2c(=O)n1CC1COc2ccccc2O1 (centres undefined),-0.95,-0.27
O=C(CCc1ccc(S(=O)(=O)N2CCOCC2)cc1)N/N=C/c1cccc(O)c1,0.25,x
COC(=O)c1ccc(COn2c(=O)c[n+]([O-])c3ccccc32)cc1,-0.2,0.7
CN(Cc1ccccc1)C(=O)Cc1noc2ccccc12,0.4,-0.4
Cc1c(C(=O)Nc2ccc(Oc3ccccc3)cc2)sc2ncn(CC(=O)N3CC(C)CC(C)C3)c(=O)c12 (centres undefined),x,0.065
O=C(COc1ccccc1Cl)NC(=O)NCC1COc2ccccc2O1 (centres undefined),-0.25,x
Cc1nc(C)c(C(=O)O)cc1C(=O)O,-0.15,x
O=C(NCC1CC1)c1ccc(Oc2cc(Cl)cc(Cl)c2)o1,-0.8,0.64
CCOC(=O)N1CCN(C(=O)c2ccc3c(=O)n(Cc4ccccc4)c(SCc4cccc([N+](=O)[O-])c4)nc3c2)CC1,x,0.39
Cc1nn(CC(C)C)c2sc(C(=O)O)cc12,-0.6,x
CS(=O)(=O)N1CCC(C(=O)NCCc2ccccc2)CC1,-0.3,-0.71
COc1ccc(C(Cl)=C(c2ccc(OC)cc2)c2ccc(OC)cc2)cc1,0.05,-0.26
COC(=O)c1cccnc1N1CCN(C(c2ccccc2)c2ccccc2)CC1,x,0.23
CCOc1ccc(C2(C)CC(C)(C)Nc3ccccc32)cc1 (centres undefined),0.35,0.78
COCCOC(=O)C1=C(N)Oc2c(c(=O)oc3ccccc23)C1c1ccc(F)cc1 (centres undefined),x,-1
Cc1nccn1-c1nc(-c2ccc(F)cc2)cc(C(F)(F)F)n1,-0.4,-0.85
Cc1cc(S(=O)(=O)Nc2cc(C(=O)NCCC3=CCCCC3)ccc2N2CC3CC(C2)c2cccc(=O)n2C3)ccc1F (centres undefined),x,-0.5
O=C(NCCOc1ccc2ccccc2c1)c1cccnc1,0.25,-0.04
CCCc1nc(C)cc(N2CCOCC2)n1,1.2,-1.4
Cc1cccc(NC(=O)CCS(=O)(=O)c2ccc3c(c2)n(C)c(=O)c(=O)n3C)c1,0.25,-0.71
CC(C)S(=O)(=O)c1cscc1NC(=O)c1ccc(Cl)cc1,0.05,-0.49
O=C(Nc1nc(-c2ccc3c(c2)OCCO3)cs1)C1CC1,0.5,-0.8
CCN(CC)C(=O)Cn1ncc2c(C)n(Cc3ccccc3F)c(C)c2c1=O,-0.3,0.6
N#Cc1cnn(-c2ccc(F)cc2)c1N,x,1.3
CCc1c(C)nc(N)nc1N1NC1=S,-0.05,-1

# 5 entries from above, with values under each structure:
# Value order – AID504770 | Ba CapD inh
O=C(COc1ccccc1Cl)NC(=O)NCC1COc2ccccc2O1 (centres undefined)
    -0.25 | x
Cc1nc(C)c(C(=O)O)cc1C(=O)O
    -0.15 | x
O=C(NCC1CC1)c1ccc(Oc2cc(Cl)cc(Cl)c2)o1
    -0.8 | 0.64
CCOC(=O)N1CCN(C(=O)c2ccc3c(=O)n(Cc4ccccc4)c(SCc4cccc([N+](=O)[O-])c4)nc3c2)CC1
    x | 0.39
Cc1nn(CC(C)C)c2sc(C(=O)O)cc12
    -0.6 | x

# Other compounds
SMILES,AID504770,Ba CapD inh
COc1ccc(NC2=NP(N(C)C)(N(C)C)=NC(c3ccccc3)=N2)cc1,-0.6,x
CN(C)C(=O)CCN1C(=O)C2C3C=CC(C3)C2C1=O (centres undefined),1.2,-0.09
CC(C)N1CN(CCc2ccccc2)c2nc3ccccc3n2C1,-1.2,0.13
CCCCN(CC)S(=O)(=O)c1ccc2[nH]c(=O)cc(C(=O)NCc3ccccc3)c2c1,0.8,0.14
Cc1ccc(/C=N/N=C2\SCC(=O)N2CC2CC2)cc1,1.5,-0.2
CCCCCN1/C(=C\C=C\c2n(CCCC)c3cc(Cl)c(Cl)cc3[n+]2CCCCC)N(CCCC)c2cc(Cl)c(Cl)cc21,x,-0.52
O=C(O)CSc1c(-c2cccs2)[nH]c2ccccc12,2.8,20
Cc1ccccc1-c1coc2cc(O)ccc2c1=O,0.1,20
CSc1nsc(SC)c1C(=O)NC(=O)Nc1cc(C)on1,x,-0.2
O=C(O)CN(Cc1ccccc1)S(=O)(=O)c1ccc(F)cc1,0.95,-0.69
O=C(C/C=N\OC(=O)Nc1ccccc1)Nc1ccc(Cl)cc1Cl,x,-0.3
O=C(CSc1nc2c(c(=O)n1-c1ccc(F)cc1)SCC2)N1CCCc2ccccc21,x,0.29
COc1ccc(C(=O)Oc2cccc(NC3=NS(=O)(=O)c4ccccc43)c2)cc1OC,x,0.65
OC(CSc1nc(-c2ccccc2)n(-c2ccccc2)n1)C(F)(F)F (centres undefined),-0.75,-0.05
C/C(=N\Nc1c(Cl)cc(Cl)cc1Cl)c1cc(Br)ccc1O,x,0.51
Cc1c(-c2ccnn2C(=O)c2ccco2)cnn1-c1ccccc1,-0.75,11
CC(C1CC2CCC1C2)n1c(SCC(=O)Nc2ccc3c(c2)OCO3)nnc1-c1ccco1 (centres undefined),-0.45,x
CC1CN(S(=O)(=O)c2ccc(C(=O)Nc3ccc(-c4nc5ccccc5o4)cc3)cc2)CC(C)O1 (centres undefined),x,0.72
N#C/C(=C\c1ccccc1)C(=O)NC1CC1,0.25,x
CN(C(=O)c1ccc(F)cc1)C1CCS(=O)(=O)C1 (centres undefined),-1.2,-0.59
Cc1ccc(-n2c(C)cc(/C=C(\C#N)C(=O)N3CCCCC3)c2C)cc1,0.75,x
Cc1ccccc1CCOC(=O)NC(C)c1cccc2ccccc12 (centres undefined),x,0.085
Clc1ccc(-c2noc(Cc3ccccc3)n2)cc1,-0.05,-0.02
Cc1nc(Nc2nc3ccccc3s2)[nH]c(=O)c1Cc1ccccc1,0.3,0.37
O=C(c1ccccc1)c1ccc(-c2nc3cc(Cc4ccc5nc(-c6ccccc6)c(-c6ccc(C(=O)c7ccccc7)cc6)nc5c4)ccc3nc2-c2ccccc2)cc1,x,-0.14

# Reformatted: results already given.
Compound | AID504770 | Ba CapD inh
CCCCN(CC)S(=O)(=O)c1ccc2[nH]c(=O)cc(C(=O)NCc3ccccc3)c2c1 | 0.8 | 0.14
Cc1ccc(/C=N/N=C2\SCC(=O)N2CC2CC2)cc1 | 1.5 | -0.2

# Sorted by SMILES length (smallest number first): four of the compounds above
SMILES,AID504770,Ba CapD inh
Clc1ccc(-c2noc(Cc3ccccc3)n2)cc1,-0.05,-0.02
O=C(O)CSc1c(-c2cccs2)[nH]c2ccccc12,2.8,20
CN(C)C(=O)CCN1C(=O)C2C3C=CC(C3)C2C1=O (centres undefined),1.2,-0.09
O=C(C/C=N\OC(=O)Nc1ccccc1)Nc1ccc(Cl)cc1Cl,x,-0.3

# Retrieved by structure from the entries so far, 3 records:
SMILES,AID504770,Ba CapD inh
CSc1nsc(SC)c1C(=O)NC(=O)Nc1cc(C)on1,x,-0.2
CN(C(=O)c1ccc(F)cc1)C1CCS(=O)(=O)C1 (centres undefined),-1.2,-0.59
COc1ccc(C(Cl)=C(c2ccc(OC)cc2)c2ccc(OC)cc2)cc1,0.05,-0.26

# (next part)
SMILES,AID504770,Ba CapD inh
COC(=O)C1=C(C)N(C)C(=O)/C1=C\c1ccco1,0.3,-1
CCC(=O)Nc1nnc(-c2ccc(Cn3c(-c4cncs4)nc4ccccc43)cc2)s1,-0.35,2.7
CN(Cc1c(F)cccc1Cl)C(=O)C1=CC=CN2CCS(=O)(=O)N=C12,-0.5,x
CN(CCc1ccccn1)c1ncnc2c1cnn2-c1ccc(Cl)cc1,-0.2,0.08
CCN(CC)S(=O)(=O)c1ccc2[nH]cc(C(=O)NCCCN3CCN(c4ccc(OC)cc4)CC3)c(=O)c2c1,-0.9,5.2
O=C(O)CCCCN1C(=O)CSC1=S,1.2,x
CC(C)(C)OC(=O)N1CCC(c2cc(=O)n3[nH]cc(C(=O)NCc4ccco4)c3n2)CC1,-0.05,-0.18
CC(C)(CC(=O)O)CC(=O)Nc1ccc(CC#N)cc1,0.65,0.93
CCN(CC)c1ccc(CC(=O)NC(C)Cc2ccccc2)cc1 (centres undefined),0.65,0
Cc1nc(Cc2ccc(OC(C)C)cc2)[nH]c(=O)c1CC(=O)O,1.4,x
Cc1csc(SCC(=O)c2cc3ccccc3oc2=O)n1,0.75,0.31
O=C(CC[n+]1ccc(/C=N/O)cc1)NCc1ccccc1,-0.85,-0.26
CN1CCC(CN)CC1,-0.95,x
N#CC1=C(S)NC(=O)CC1c1ccco1 (centres undefined),-0.35,x
C=CCSc1ncccc1C(=O)NCc1ccc(C)cc1,-0.25,0.27
O=C(Cn1nc2n(c1=O)-c1ccccc1SC2)c1cccs1,-1.1,-0.69
CN(C)c1ccc(C(=O)/C=C/c2ccc3oc4ccccc4c3c2)cc1,x,-0.085
CCN(CC)C(=O)c1sc(N2C(=O)Nc3ccccc3N2O)c(C(=O)OC)c1C,0.2,0.005
CC(NC(=O)C1CC2CCCC(C1)C2=O)c1ccccc1 (centres undefined),0.2,0.54
CCn1nnc2cc(C(=O)N3CCC(C(=O)OC)CC3)ccc21,0.05,x
NC(=O)NNc1cccc2cccnc12,-0.7,-0.49
CCc1ccc(-c2cc(C(=O)N3CCCCC3)c3ccccc3n2)cc1,x,7.3
Cc1nnc(Sc2cc(C(=O)NCCN(C)Cc3ccccc3)c3ccccc3n2)s1,-0.25,-2.5
O=S1(=O)CCC(NC(=S)Nc2ccccn2)C1 (centres undefined),1.1,0.43
O=C(Cn1c(CO)nc2ccccc21)NCC(F)(F)F,-0.35,x
# Next part:
SMILES,AID504770,Ba CapD inh
N#CC(=C1C(=O)c2ccccc2C1=O)c1nc2ccccc2[nH]1,-0.85,-4.4*
c1ccc(CCn2c(-c3ccc(-c4ccccc4)cc3)csc2=Nc2ccccc2)cc1,x,0.18
COc1ccc(OC)c(NC(=O)c2sc3nc(C)nc(N4CCN(c5ccccn5)CC4)c3c2C)c1,x,-0.72
CSc1sc(C(=O)NNC(=O)CCCOc2ccc(Cl)cc2C)c2c1C1(CCC2)SCCS1,x,-1
CC(Oc1ccccc1)c1nn2c(-c3cccnc3)nnc2s1 (centres undefined),-1,x
O=S(=O)(c1ccc(Cl)cc1)n1nnc2ccccc21,x,6.1
OC1CCN(c2ncc(C(F)(F)F)cc2Cl)CC1,-0.65,-0.35
C=CCn1c(=O)c2ccccc2n2c(SCc3c(C(=O)OC)sc(N)c3C(=O)OC)nnc12,0.3,x
CC(=O)NCCCc1[nH]n(-c2ccccc2)c(=O)c1NC(=O)c1ccccc1,-0.1,x
O=C(NCCN1CCOCC1)c1cc2ccccc2oc1=O,-0.5,11
O=C(NCc1ccccn1)c1ccc2c(c1)CCN2S(=O)(=O)c1ccc(Cl)cc1,0,0.11
CC(C)C(=O)Nc1ccccc1C(=O)O,-0.75,0.46
NC(=O)c1cc2c([nH]c1=O)CCCCCCCCCC2,0.2,x
Cc1ccc(CC(C(=O)O)C(C)C(=O)Nc2ccc(F)cc2)cc1 (centres undefined),1.2,-0.03
COc1cccc(NS(=O)(=O)c2cc(C(=O)N3CCCC3)ccc2NCCc2ccc(OC)c(OC)c2)c1,x,1.2
CCN1CCN(C(=O)c2cc(-c3ccccc3)nc3ccccc23)CC1,-1.7,1.3
COc1ccc(C2CC(c3ccc(OC)c(OC)c3)=NN2C(=O)CCCC(=O)O)cc1 (centres undefined),x,27
CC(C)(C)/C(N)=N/S(=O)(=O)c1cc(C(F)(F)F)cc(C(F)(F)F)c1,2.5,-0.13
COc1ccc(-c2csc(/C(C#N)=C(\O)CSc3nccn3C)n2)cc1OC,-0.7,x
OC1/C(=C/c2ccccc2)CN(Cc2ccccc2)C/C1=C\c1ccccc1 (centres undefined),x,-0.49
O=C(NN=C(c1ccccc1)c1ccccc1)c1ccco1,0,-0.35
O=C(C1=CC2Cc3ccccc3C2C=C1)c1cccc(Br)c1 (centres undefined),-1.3,-0.29
CCC1=CC(C)(CC)Nc2cc(C)ccc21 (centres undefined),0.3,14
O=C(O)C(Cc1c[nH]c2ccccc12)Nc1ncnc2c1oc1ccccc12 (centres undefined),0.15,x
NCCSc1nnc2c(n1)[nH]c1ccccc12,-0.75,-0.85
# Carrying on.
SMILES,AID504770,Ba CapD inh
NNc1ncnc2ccccc12,-0.25,x
Cc1cccc(CC2SC(=Nc3ccccc3)NC2=O)c1 (centres undefined),x,0.24
c1ccc(-c2cccnn2)cc1,-0.6,0.17
OC1(c2ccccc2)C2CC3CC(C2)CC1C3 (centres undefined),-0.35,-0.58
Clc1ccc(N=c2scc(-c3cccs3)n2CCCN2CCOCC2)cc1,-0.05,x
CCCCn1nc(C(=O)N2CCN(S(=O)(=O)c3ccccc3)CC2)c2ccccc2c1=O,-1,x
COc1ccc(-n2cnnc2SC(C)C(=O)N2CC(C)CC(C)C2)cc1 (centres undefined),-1.1,x
O=C1CC(c2ccccc2)OC12CCCCC2 (centres undefined),-0.5,-0.92
O=C(ON(C(=O)c1ccc(F)cc1)C1C2CC3CC(C2)CC1C3)c1ccc(F)cc1 (centres undefined),-0.05,0.4
CCOC(=O)N1CCC(N=Cc2ccc(OC(C)C)cc2)CC1,-0.65,0.24
CCc1nc2ccccc2c(C(=O)OCC(=O)c2ccccc2)c1C,-0.75,-0.08
O=S(=O)(NCc1ccccc1)c1ccc2c(c1)OCCO2,-1.5,0.59
CCN(CC)S(=O)(=O)c1ccc(C(=O)NCCn2ccc3ccccc32)cc1,0.15,0.21
CCCn1c(C(C)NC(=O)C(C)(C)C)nc2ccccc21 (centres undefined),-0.45,9.7
Nc1c(C(=O)CCC(=O)O)oc2ccccc12,2.3,x
CCCN1CCC(NC(=O)Nc2cccc(F)c2)CC1,-0.75,0.03
Cc1cc(C=C(C#N)C#N)c(C)n1-c1ccccc1,2.9,x
c1ccc(C2N3CCCN23)cc1 (centres undefined),-0.35,0.5
N/C(=N\S(=O)(=O)c1ccc(Cl)cc1)Nc1nc2ccccc2o1,0.1,x
O=C(Nc1cc(Cl)ccc1Oc1ccc2ccccc2c1Br)c1cc(Cl)cc(Br)c1O,x,5.1
FC(F)(F)c1nnc(-c2ccccc2)nc1Oc1ccc(Cl)cc1Cl,x,-0.4
COc1ccc(CCNCC2CCCO2)cc1 (centres undefined),-0.3,0.79

# Compound activity deposited in PubChem BioAssay by ICCB-Longwood Screening Facility, Harvard Medical School.
